High-throughput results (PubChem)
Mtb H37Rv: M. tuberculosis H37Rv growth inhibitors, H37Rv strain (AID 1626); M. tuberculosis H37Rv growth inhibition; higher % means a stronger effect; inhibition, % at 10 µM, or IC50 in µM where a hit was titrated; 0.95% of 220,000 active;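 active = confirmed in a dose series; inconclusive = inhibition above 80% but not taken into the dose series; inactive = below 80% or under 30% at every dose of the series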;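 note: bacteria incubated seven days before Alamar blue readout; 0% = bacteria only wells and 100% = bacteria with antibiotic wells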
Arbovirus anti: arbovirus infection inhibition | inhibition, % at 10 µM | arbovirus infection cell-based antiviral screen | AID 1251 | 0.37% of 200,000 active;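 active = inhibition from about 30%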;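 note: bluetongue infection of BSR cells; cell survival read as ATP light after 72 h; 0% = infected wells without compound and 100% = uninfected wells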
RecA splice inh: Mtb RecA intein splicing inhibition; P9WHJ3; cell-free RecA intein splicing, fluorescence; inhibition, %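 (about 9 µM by stock and volumes)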; 0.75% of 290,000 active; in the data active = inhibition above about 30%; inconclusive = no clear call, values can overlap the other calls;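 note: 0% = vehicle wells and 100% = reference inhibitor control wells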
Target sequence (P9WHJ3 whole entry, looked up, canonical isoform): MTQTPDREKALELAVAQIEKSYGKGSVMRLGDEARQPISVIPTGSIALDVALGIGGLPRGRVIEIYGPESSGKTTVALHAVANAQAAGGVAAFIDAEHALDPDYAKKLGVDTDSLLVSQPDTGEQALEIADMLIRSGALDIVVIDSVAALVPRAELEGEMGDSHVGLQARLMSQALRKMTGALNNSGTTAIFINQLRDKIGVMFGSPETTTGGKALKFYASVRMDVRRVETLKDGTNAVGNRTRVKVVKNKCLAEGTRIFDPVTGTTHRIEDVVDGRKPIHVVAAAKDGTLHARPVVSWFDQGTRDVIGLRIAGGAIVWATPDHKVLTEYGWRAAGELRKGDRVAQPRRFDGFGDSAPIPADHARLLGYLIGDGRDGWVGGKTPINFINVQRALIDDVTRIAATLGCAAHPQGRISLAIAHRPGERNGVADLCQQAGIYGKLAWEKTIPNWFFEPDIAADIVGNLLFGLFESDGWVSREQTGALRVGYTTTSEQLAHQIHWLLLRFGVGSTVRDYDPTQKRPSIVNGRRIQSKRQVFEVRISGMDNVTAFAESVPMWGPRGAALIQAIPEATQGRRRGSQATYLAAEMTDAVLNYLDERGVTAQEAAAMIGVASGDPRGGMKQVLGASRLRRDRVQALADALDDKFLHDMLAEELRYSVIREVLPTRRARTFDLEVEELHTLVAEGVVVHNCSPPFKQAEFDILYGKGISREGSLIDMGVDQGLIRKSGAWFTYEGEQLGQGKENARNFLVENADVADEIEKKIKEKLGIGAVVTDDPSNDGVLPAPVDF
YopH PTP inh: YopH (Yersinia) phosphatase inhibition | fluorescence Ex485/Em525 | inhibition, %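 (about 10 µM by stock and volumes)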 | 0.16% of 140,000 active;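 active = inhibition of 50% or more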;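 note: controls were vehicle for no effect and minimum signal wells for full effect; inactives centre near -20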
Mtb betalactam: beta-lactam sensitization of Mtb H37Rv; M. tuberculosis H37Rv growth with meropenem, percent inhibition; hits of this screen are not shown here; inhibition, % at 25 µM; 0.27% of 330,000 active; AID 434955;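 active = about 74% or more and at least 40 points above the plate without the antibiotic, then above 30% in a dose series; inconclusive = first-round hits that could not be retested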;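 note: growth measured after seven days incubation then overnight dye step; 0% = bacteria only wells and 100% = bacteria with antibiotic; twin plates without the antibiotic show which effects depend on it; some results filed as inactive read as strong as hits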
Arbovirus anti repeat: recorded beside Arbovirus anti, whose call it bears; inhibition, %; measured here: 10K subset replicate screen; many hits read low in the repeat;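 first of two repeat runs on a subset; 0% = infected and 100% = uninfected wells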
* = called active by the depositor; ? = inconclusive; . = not tested or not shown. A portion of the library (hit frequency here may not be typical).

SMILES | Mtb H37Rv | Arbovirus anti | RecA splice inh | YopH PTP inh | Mtb betalactam | others
CC(C)(C)n1nc2c(c1NC(=O)COc1ccccc1F)CS(=O)(=O)C2 | 2.5% | 2.7 | 0.9 | . | -5.1
CCC1CCc2sc(C(=O)NNC(=O)c3ccncc3)cc2C1 (stereo unspecified) | . | . | 5.0 | . | 88.2
CNC(=O)c1nc(C)n(-c2cc(Cl)cc(Cl)c2)n1 | -14.3% | -0.4 | 4.2 | -36.4 | -6.8
CCOC(=O)N1CCC(NC(=O)CCN2C(=O)COc3ccccc32)CC1 | -0.9% | -2.1 | -0.1 | -48.4 | -3.1
CCOc1cc(/C=N/NC(=O)c2ccccn2)ccc1OC(=O)c1ccc(F)cc1 | . | . | -0.2 | . | 97.6
CN(CCOC(=O)/C=C/c1ccco1)Cc1ccccc1 | -3.8% | -0.6 | -0.5 | . | 22.8
COC(=O)C(CO)NC(=O)C(C)NC(=O)CNC(=O)OCc1ccccc1 (stereo unspecified) | -3.3% | -4.6 | -0.7 | . | -7.7
CC1CCCN(C(=O)c2ccc3c(c2NCCO)C(=O)c2ccccc2C3=O)C1 (stereo unspecified) | 13.8% | -4.6 | 13.4 | 6.6 | 34.5
Cc1ccc(NC(=O)CSC2=NN3CCCC(=O)N=C3S2)c(C)c1 | . | -0.5 | -3.4 | . | -4.9
CCc1nnc(NC(=O)c2cc(-c3ccncc3)nc3ccccc23)s1 | 5.0% | . | -0.6 | . | -0.4
COc1cccc(/C=C2\SC(=S)N(NS(=O)(=O)c3ccc(C)cc3)C2=O)c1OC | . | . | 0.6 | . | -13.2
O=C(O)C1CCN(C(=O)NC2CCCCC2)CC1 | -8.8% | 1.7 | -1.8 | -45.9 | -2.3
CC(C)(C)n1nnnc1C(c1cccnc1)N1CCOCC1 (stereo unspecified) | -10.5% | -4.8 | 5.2 | . | 0.9
CC(SCc1ccccc1)C(=O)NC1CCCC1 (stereo unspecified) | 3.6% | 1.0 | 0.1 | 15.9 | -5.6
COc1ccccc1CCNS(=O)(=O)c1cc2c3c(c1)CCN3C(=O)CC2 | . | . | -1.5 | . | 2.8
O=C(O)CCN1C(=O)c2ccc(NC(=O)CSc3ccccc3)cc2C1=O | -3.0% | -4.2 | -1.0 | -25.2 | -4.5
CCOC(=O)c1sc(NC(=O)CN2CC(C)OC(C)C2)nc1C (stereo unspecified) | . | . | -2.4 | . | -6.0
CCOc1cc2c(cc1OC)C(NC(=O)C(F)(F)F)CC2=O (stereo unspecified) | -6.1% | 9.0 | 3.1 | -23.4 | -1.1
OC(COc1ccccc1Br)CN1CCNCC1 (stereo unspecified) | . | . | 1.3 | . | -0.5
O=C(c1ccco1)n1nc(-c2ccc(Cl)cc2)nc1NCc1ccco1 | -0.1% | -9.7 | 1.3 | 10.3 | -2.3

The final 7 compounds of the part before open the next one:
SMILES | Mtb H37Rv | Arbovirus anti | RecA splice inh | YopH PTP inh | Mtb betalactam | others
CC(SCc1ccccc1)C(=O)NC1CCCC1 (stereo unspecified) | 3.6% | 1.0 | 0.1 | 15.9 | -5.6
COc1ccccc1CCNS(=O)(=O)c1cc2c3c(c1)CCN3C(=O)CC2 | . | . | -1.5 | . | 2.8
O=C(O)CCN1C(=O)c2ccc(NC(=O)CSc3ccccc3)cc2C1=O | -3.0% | -4.2 | -1.0 | -25.2 | -4.5
CCOC(=O)c1sc(NC(=O)CN2CC(C)OC(C)C2)nc1C (stereo unspecified) | . | . | -2.4 | . | -6.0
CCOc1cc2c(cc1OC)C(NC(=O)C(F)(F)F)CC2=O (stereo unspecified) | -6.1% | 9.0 | 3.1 | -23.4 | -1.1
OC(COc1ccccc1Br)CN1CCNCC1 (stereo unspecified) | . | . | 1.3 | . | -0.5
O=C(c1ccco1)n1nc(-c2ccc(Cl)cc2)nc1NCc1ccco1 | -0.1% | -9.7 | 1.3 | 10.3 | -2.3
CC(C)(C)OC(=O)N1CCN(C(=O)OCC2c3ccccc3-c3ccccc32)CC1C(=O)O (stereo unspecified) | -10.9% | . | 10.0 | . | -10.5
CCOC(=O)c1oc2ccccc2c1COC(=O)CNC(=O)c1ccco1 | . | . | 0.1 | . | 0.9
COc1ccc(C(C)=O)cc1COc1ncnc2ccccc12 | -1.5% | -1.6 | 1.7 | . | -1.5
N#Cc1ccccc1S(=O)(=O)Nc1ccc2c(c1)OCCO2 | . | . | -2.0 | . | 1.1
CCOC(=O)CCc1nc2ccccc2[nH]c1=O | -4.7% | -0.6 | 0.5 | -21.2 | -1.7
COc1ccc(S(=O)(=O)NCC(=O)N(CC(=O)NCc2ccco2)Cc2ccc(F)cc2)cc1 | . | . | -3.1 | . | -8.2
C(=Nc1ccc(Nc2ccccc2)cc1)c1ccc2ccccc2c1 | 51.2% | -20.7 | . | -18.9 | 3.5
O=C(COc1ccc(F)cc1)Nc1nc(-c2ccccn2)cs1 | . | . | -0.2 | . | 90.1
CSc1nnc(C2CCN(CC(=O)Nc3ccccc3N3CCOCC3)CC2)n1C | . | . | 10.0 | . | 7.5
C=CCOc1ccc(C(c2c(O)nc(SC)[nH]c2=O)c2c(O)nc(SC)[nH]c2=O)cc1 | . | . | -0.9 | . | 2.9
O=C(Nc1ccc(Cn2cccn2)cc1)c1ccc(COc2cccc(Br)c2)cc1 | -7.4% | -29.8 | 3.5 | -22.0 | 2.7
CNc1nc(Nc2ccccc2)nc(OCC(F)(F)F)n1 | 9.5% | -5.2 | 0.1 | . | -0.4
CCC(C)Nc1nc(CN2CCOCC2)nc2sc3c(c12)CCC3 (stereo unspecified) | 5.5% | 11.0 | -2.8 | 11.6 | 67.3
N=c1oc2ccc(Br)cc2cc1C(=O)NCc1ccc(F)cc1 | . | . | 0.6 | . | 14.3
O=C(Oc1ccc(Cl)c2cccnc12)N1CCOCC1 | -10.8% | -1.6 | -2.5 | -18.3 | -1.9
CN(CC1CCCO1)S(=O)(=O)c1ccc(C(=O)Nc2nc3cc4c(cc3s2)OCO4)cc1 (stereo unspecified) | . | -22.2 | -1.1 | -15.3 | 7.9 | Arbovirus anti repeat=-5.4
CCN(CC(=O)Nc1ccc(Cl)c(C(F)(F)F)c1)CC(=O)NC1CCS(=O)(=O)C1 (stereo unspecified) | 0.8% | 5.0 | -1.4 | . | -6.8
CC(C)(C)C(=O)NC(=S)Nc1cccc(C(=O)O)c1 | 1.0% | 3.0 | -0.5 | . | 3.4
CC(C)(C)CC(=O)NC(=S)Nc1ccccc1[N+](=O)[O-] | 10.9% | -2.7 | 2.0 | . | 23.2
CCOc1cc(N2CCOCC2)c(OCC)cc1NC(=O)c1cc(C)nc2ccccc12 | 0.1% | 0.3 | 1.8 | . | -6.7
COC(=O)Cc1c(C)c2ccc(OCC(=O)N3CCCC(C)C3)c(C)c2oc1=O (stereo unspecified) | . | . | 2.2 | . | -12.9
O=C(CSc1nnc(-c2ccncc2)o1)N1CCCC1 | -4.7% | -5.7 | -1.5 | . | -3.2
CCN(C(=S)Nc1cccnc1)c1cccc2ccccc12 | -15.6% | -7.7 | 6.6 | . | -2.3
CN(CC(=O)Nc1ccccc1C(=O)N1CCCC1)S(=O)(=O)c1ccc(Br)cc1 | 3.9% | 3.2 | -0.1 | -9.7 | -2.4
O=C(NNC(=S)NC(=O)c1ccccc1)c1ccc(O)cc1 | . | . | 2.7 | . | 79.8
CC(On1nnc2ccccc21)C(=O)N1CCN(Cc2ccccc2)CC1 (stereo unspecified) | -6.0% | 3.9 | -1.3 | . | -1.7
Cc1ccc(C)c(N2CCN(C(=O)c3ccc(CS(=O)Cc4ccc(Cl)cc4)o3)CC2)c1 (stereo unspecified) | . | . | 1.2 | . | 8.5
O=c1n(-c2cccc(Cl)c2)c(=O)n2n1CCC2 | -1.5% | 2.6 | 2.5 | 29.5 | 2.9
COc1ccc(CNC(=O)CS(=O)Cc2nc(-c3ccc(C)cc3)oc2C)cc1 (stereo unspecified) | 7.0% | 4.2 | 2.3 | -2.2 | -1.3 | Arbovirus anti repeat=-11.7
CCOC(=O)Cc1csc(NC(=O)COc2ccc(N(C)S(=O)(=O)c3cccs3)cc2)n1 | 2.5% | 7.8 | 2.7 | -39.6 | -24.6 | Arbovirus anti repeat=7.4
O=C(NCC1CCCO1)c1c(O)c2c([nH]c1=O)CCCC2 (stereo unspecified) | -4.7% | 3.4 | 1.2 | 0.9 | -2.0
CCNc1c([N+](=O)[O-])ncn1C | -0.2% | 0.9 | 2.1 | -30.9 | -3.9
CCN1CCN(c2ccc(S(=O)(=O)N3CCOCC3)cc2NC(=O)C(C)Oc2ccc(Cl)cc2)CC1 (stereo unspecified) | . | . | -5.8 | . | -2.6
N#CCCN(C(=O)COC(=O)c1nc(Cl)ccc1Cl)c1ccccc1 | . | . | 3.1 | . | -9.3
COc1cccc2cc(C(=O)NC(C)C3CCCO3)c(=O)oc12 (stereo unspecified) | -9.1% | 5.5 | -3.6 | 5.7 | -18.6
CCCC(=O)c1cc2c(cc1NC(=O)c1ccccc1F)OCCO2 | 2.5% | 6.0 | -0.4 | . | -5.7
COc1ccc(Nc2ccc([N+](=O)[O-])cn2)cn1 | . | . | 0.5 | . | 2.9
CCCC1N2CC3([N+](=O)[O-])CN1CC([N+](=O)[O-])(C2)C3(C)C (stereo unspecified) | -6.4% | -5.2 | 3.2 | -14.3 | 0.1
CC1CCc2c(nc3ncnn3c2Nc2ccc(OC(F)(F)F)cc2)C1 (stereo unspecified) | 8.6% | -5.4 | -1.8 | -16.4 | 2.3
CN1/C(=C/c2cc[n+](C)c3ccccc23)C=Cc2ccccc21 | ? | -14.0 | . | . | .
Cc1cc(C)c(C(=O)N2CCCC(C(=O)c3cc(F)ccc3F)C2)o1 (stereo unspecified) | 4.4% | 0.5 | 12.6 | . | -0.9
Oc1ccccc1C1=Nc2ncnn2C(c2ccccc2)C1 (stereo unspecified) | 2.5% | 7.4 | -1.8 | 21.5 | 58.3
N#Cc1cccn1-c1nccs1 | -4.4% | 5.7 | 0.4 | . | -2.6
COc1cc([N+](=O)[O-])ccc1NC(=O)CN(C)C | -11.2% | 2.6 | 0.4 | -25.8 | 2.2
CC(=O)NN1C(=O)/C(=C/c2ccc(C(C)C)cc2)SC1=S | -1.6% | -11.6 | 7.1 | -27.2 | -6.9
O=C(O)c1ccc(-c2nc3ccccc3[nH]2)cc1 | -8.4% | -9.1 | 12.4 | -27.1 | 1.4
CCOC(=O)N1CCN(C(=O)CSc2ccccc2)CC1 | -5.9% | 14.9 | -5.2 | -24.7 | -0.9
Cc1ccc(/C=N/NC(=O)C2CC(=O)N(c3ccccc3)C2)s1 (stereo unspecified) | -6.6% | -5.3 | -0.1 | -40.0 | -3.8
O=c1oc(Nc2ccc(F)cc2)nc2ccccc12 | -4.8% | -1.2 | 0.2 | -17.9 | -8.8
CCOc1c(Br)cc(/C=N\NC(=O)c2ccccc2)cc1OC | -2.9% | -0.5 | -0.2 | -14.7 | -4.1
Cc1cc(C)cc(NC(=O)N2CCC(C(=O)c3ccc(F)cc3)CC2)c1 | 9.2% | -6.3 | 2.2 | . | 1.4

Grouped by structure: the compounds so far with an NH in an aromatic ring.
SMILES | Mtb H37Rv | Arbovirus anti | RecA splice inh | YopH PTP inh | Mtb betalactam | others
CCOC(=O)CCc1nc2ccccc2[nH]c1=O | -4.7% | -0.6 | 0.5 | -21.2 | -1.7
C=CCOc1ccc(C(c2c(O)nc(SC)[nH]c2=O)c2c(O)nc(SC)[nH]c2=O)cc1 | . | . | -0.9 | . | 2.9
O=C(NCC1CCCO1)c1c(O)c2c([nH]c1=O)CCCC2 (stereo unspecified) | -4.7% | 3.4 | 1.2 | 0.9 | -2.0
O=C(O)c1ccc(-c2nc3ccccc3[nH]2)cc1 | -8.4% | -9.1 | 12.4 | -27.1 | 1.4
